Screening data: PubChem, PCMD
Calb biofilm kill = mixture kills Candida albicans biofilm cells. actives 0.02% (n = 120,000). C. albicans biofilm persisters + clotrimazole, fluorescence viability; primary screen in compound mixtures of four per well. inhibition, % at 7.6 µM;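 active = inhibition above 30.3% in the primary screen of four-compound pools, then above 30% when the compound was retested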;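 also: compounds exposed to preformed 24 h biofilms for 48 h; the number belongs to the whole pool; some results filed as inactive read as strong as hits; inactives centre near 12; 0% = biofilm with clotrimazole alone and 100% = kill control; retested singly at about 60 µM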
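Test system: C. albicans CAF4-2 wild-type biofilms; buffer or medium: RPMI/MOPS medium, pH 7.0; schedule: 24 h biofilm formation, then 48 h compound exposure, 37 °C; detection: Alamar Blue fluorescence; measure: percent inhibition of biofilm viability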
* marks the source's active call; other numbers are inactive results. The list is partial (hit frequency here may not be typical).

Preview, three compounds:
mol | Calb biofilm kill
O=C(OCc1nc2ccccc2[n+]([O-])c1C(=O)c1ccccc1)c1ccco1 | 18
O=C(CSc1ccccn1)N1CCOCC1 | 12
CN(Cc1ccc(F)cc1)C(=O)c1ccc2c(c1)NC(=O)CS2 | -2

The listing, from the first entry:
mol | Calb biofilm kill
O=C(OCc1nc2ccccc2[n+]([O-])c1C(=O)c1ccccc1)c1ccco1 | 18
O=C(CSc1ccccn1)N1CCOCC1 | 12
CN(Cc1ccc(F)cc1)C(=O)c1ccc2c(c1)NC(=O)CS2 | -2
CCCOC(=O)Nc1cc(OC)ccc1[N+](=O)[O-] | 14
COc1ccccc1Oc1ccc(-c2cnc3ccccc3n2)cc1[N+](=O)[O-] | 11
O=C(/C=C/c1ccc(F)cc1)N1CCCc2ccccc21 | -2
CCN1CCN(C(=O)CN(c2ccc(F)c(Cl)c2)S(C)(=O)=O)CC1 | 1
Nn1c(SCC(=O)Nc2ccc3c(c2)OCO3)nncc1=O | 13
CNC1=CC(=O)CC(c2ccccc2)C1 (stereo unspecified) | 10
COc1nccnc1NS(=O)(=O)c1ccc(NC(=S)NC(=O)c2ccc(F)cc2)cc1 | 15
Cc1ccc(-c2nnn(CC(=O)N(c3cccc(F)c3)C(C(=O)NC(C)(C)C)c3ccco3)n2)o1 (stereo unspecified) | 26
Cc1ccc(-c2nc(NC(=O)c3ccc(S(=O)(=O)N(CCC#N)CCC#N)cc3)sc2-c2ccccc2)cc1 | 12
O=C(NC1CCCCC1)C12CC3CC(CC(Cl)(C3)C1)C2 | 26
Cc1cccc(C)c1OCC(=O)Nn1c(=O)[nH]c2ccccc2c1=O | 8
O=C(NC(=S)Nc1ccc(Br)cn1)c1cccs1 | 2
O=C(OCC(=O)N1CCC(Cc2ccccc2)CC1)c1ccccc1 | 11
COC(=O)Cc1ccc(NC(=S)NNC(=O)c2ccccc2Br)cc1 | -6
CCCCCC(=O)N1CCCC1 | 8
O=C(CCc1ccccc1)Nc1nnc(-c2ccc3c(c2)OCCO3)o1 | 17
O=C(Nc1ccc(F)cc1)C1=CC(=O)N2CCN=C2S1 | 6
CCN(c1ccccc1)S(=O)(=O)c1ccc(C(=O)NCC(c2cccs2)N(C)C)cc1 (stereo unspecified) | 5
CN1CCN(c2ccc(S(=O)(=O)N3CCCCC3)cc2NC(=O)c2cccc([N+](=O)[O-])c2)CC1 | 12
O=C(CSc1ncccn1)NC(=O)Nc1ccc2c(c1)OCCO2 | 8
Cc1cccc(NC(=O)NNC(=O)c2c(Cl)c(C)nn2C)c1 | 12
COc1ccc(CC(=O)NC(C)c2nnc(SCCC(=O)Nc3ccccc3)n2C)cc1 (stereo unspecified) | 5
COc1ccc(NC(=O)CSc2c3c(nc4cc(Cl)ccc24)CCCC3)cc1OC | 5
COC(=O)N1C/C=C\C(c2ccc(OC)cc2)N(Cc2ccc(F)cc2)C(=O)C1 (stereo unspecified) | 16
c1ccc(CNCC2COc3ccccc3O2)cc1 (stereo unspecified) | 11
CCC(C)NC(=S)NNC(=O)c1ccncc1 (stereo unspecified) | 22
O=C(NCCN1CCc2ccccc2C1)Nc1ccc([N+](=O)[O-])cc1 | 19
CCn1c(N2CCN(C(=O)NC3CCCCC3)CC2)nc2ccccc21 | 15
O=C1NC(c2ccc(Cl)cc2)Nc2ccccc21 (stereo unspecified) | 2
CCc1ccc(C(=O)NNc2cc(Cl)cc(Cl)c2)cc1 | 0
CS(=O)(=O)N1CCC(C(=O)Nc2cccc([N+](=O)[O-])c2)CC1 | 0
Cc1sc2c(c1C)C(=O)NC(c1ccccc1F)N2 (stereo unspecified) | 8
C=C(C)c1cccc(C(C)(C)NC(=O)N2CCN(c3ccccc3OC)CC2)c1 | 17
COc1ccc(NC(=S)N2CCC(N(C)CCN3CCOCC3)CC2)cc1 | 15
COc1ccccc1/C=C/C(=O)OCc1nc2ccccc2c(=O)[nH]1 | 11
CC(=O)N/C(N)=N/c1nc2cc([N+](=O)[O-])ccc2o1 | 13
CCOC(=O)N1CCC(NC(=O)c2cc(S(=O)(=O)N3CCCCC3)ccc2F)CC1 | 24
COc1ccc(/C=C/C(=O)NCC(=O)N2CCC(N(C)CCN3CCOCC3)CC2)cc1OC | 17
CCOC(=O)NS(=O)(=O)c1ccc(CCNC(=O)c2cc(C)on2)cc1 | 11
Cc1[nH]c2ccccc2c1SCc1nnc(SCc2ccc(Cl)cc2)n1C | 14
Cc1ccccc1C(=O)NNC(=S)Nc1cccc(C(F)(F)F)c1 | 13
CSc1nc2cc(C)nn2c(-c2ccccc2Cl)c1C#N | 20
CN(C)c1cccc(C(=O)OCC(=O)Nc2ccccc2Cl)c1 | 7
O=C(O)COc1ccccc1/C=N/NC(=O)CNC(=O)c1ccc(F)cc1 | 0
CCn1c(/C=C\c2ccccc2C)nc2ccccc2c1=O | 24
Nc1ccc(C(=O)Oc2ccc([N+](=O)[O-])cc2)c(O)c1 | 4
O=C(CCC1CCCC1)N1CCC(N2CCCCCC2)CC1 | 21
CCOc1ccccc1NC(=O)NC(C)c1ccncc1 (stereo unspecified) | 8
O=C(NC(=S)NCC1CCCO1)c1ccc(Cl)cc1Cl (stereo unspecified) | 21
CCCCC(=O)NC(=S)Nc1cccc(NC(=O)c2ccco2)c1 | -4
COc1cccc(C2NC(=S)NC3=C2CCc2ccccc23)c1 (stereo unspecified) | 7
CN1CCN(c2ccc(Cl)cc2NC(=O)CCN2C(=O)c3ccccc3C2=O)CC1 | 16
CCOc1ccccc1N1CCN(C(=O)/C=C/c2cccc([N+](=O)[O-])c2)CC1 | 0
Cc1ccc(N2C(=O)c3ccccc3NC2C(C)Cc2ccc3c(c2)OCO3)cc1 (stereo unspecified) | 10
CCOC(=O)C1(Cc2cccc(OC)c2)CCN(Cc2cccn2-c2nccs2)CC1 | 4
O=C(Cc1ccc(Cl)cc1)NNC(=O)c1cnccn1 | 13
Cc1nn(CCC(=O)NNC(=S)Nc2ccc([N+](=O)[O-])cc2)c(C)c1[N+](=O)[O-] | 4

Some of the entries above, reformatted:
COC(=O)N1C/C=C\C(c2ccc(OC)cc2)N(Cc2ccc(F)cc2)C(=O)C1 (stereo unspecified)
- Calb biofilm kill: 16
COc1ccccc1/C=C/C(=O)OCc1nc2ccccc2c(=O)[nH]1
- Calb biofilm kill: 11
CCC(C)NC(=S)NNC(=O)c1ccncc1 (stereo unspecified)
- Calb biofilm kill: 22
Cc1sc2c(c1C)C(=O)NC(c1ccccc1F)N2 (stereo unspecified)
- Calb biofilm kill: 8

Following part:
mol | Calb biofilm kill
O=C1OC(c2ccccc2)=NC12CC2c1ccc(Cl)cc1 (stereo unspecified) | 11
CCOC(=O)C1(Cc2ccc(OC)cc2)CCN(C(=O)CCn2cccn2)CC1 | 8
COc1ccc(OCC(=O)NC(=S)Nc2ccc(S(=O)(=O)Nc3cc(OC)nc(OC)n3)cc2)cc1 | 5
C#CCOCCOCCOCCNc1nc(N2CCOCC2)nc(N2CCN(C(=O)[C@H](Cc3cc4ccccc4[nH]3)n3cc([C@@H](N)Cc4ccc(O)cc4)nn3)CC2)n1 | 16
Cc1ccc(C(=O)Nc2ccc(N3CCN(S(C)(=O)=O)CC3)cc2)cc1C | 22
COc1ccccc1S(=O)(=O)Nc1cc(S(=O)(=O)N2CCCCC2)ccc1N1CCOCC1 | 0
O=C(NCc1ccccc1Cl)c1ccccc1Oc1ccccc1 | 15
CCc1cccc(CC)c1NC(=S)NCC(c1cccnc1)N1CCOCC1 (stereo unspecified) | 13
COC(=O)c1c(NC(NC(=O)c2ccccc2)(C(F)(F)F)C(F)(F)F)sc2c1CCN(C)C2 | 16
OC1CCCN(Cc2nc(Cc3ccccc3Cl)no2)C1 (stereo unspecified) | 9
CC(=O)c1ccc(NC(=O)C(C)OC(=O)COc2ccc(C#N)cc2)cc1 (stereo unspecified) | 3
CN1CCN(c2ccc(Cl)cc2NC(=O)/C=C/c2ccc(F)cc2)CC1 | 2
COCCN(Cc1cc2ccc(C)cc2n2nnnc12)Cc1nnnn1C(C)(C)C | 18
COc1ccc(NC(=O)CNC(=O)c2c(C)nn(C)c2Cl)cc1 | 15
O=C1NN=C(c2ccc(Cl)cc2)CC1c1cccc(Br)c1 (stereo unspecified) | 13
Cc1ccccc1C(=O)Nc1cccc(-c2cn3ccccc3n2)c1 | 20
Cc1ccccc1OCCC(=O)OCC(=O)NC(C)c1ccccc1 (stereo unspecified) | -10
COC(=O)CSc1ncnc2c1sc1nc3c(cc12)COC(C)(C)C3 | 19
Cc1cc(C)n2c(SCC(=O)NCc3ccc4c(c3)OCO4)nnc2n1 | 15
CCn1c(SCc2nc3scc(-c4ccccc4)c3c(=O)[nH]2)nnc1-c1ccc(Cl)cc1 | 5
COc1cccc(/C=N/NC(=O)c2c(C)nc3ccc(Br)cn23)c1O | 19
COc1ccccc1[C@@H]1C(c2cccc(Cl)c2)=NN(c2ccccc2)[C@H]1C(=O)N1CCOC1=O | 12
O=C1CC(c2ccc(F)cc2)CC2=C1C=Nc1ccccc1N2 (stereo unspecified) | 26
COc1ccc(C2C(C#N)=C(N)Oc3c2oc(CO)cc3=O)cc1 (stereo unspecified) | 15
O=C(NCCO)c1cccc2c1-c1ccccc1C2=O | 7
O=C(Nc1ccccc1C(=O)NC(Cc1ccc(O)cc1)C(=O)O)c1ccccc1 (stereo unspecified) | 9
COc1ccc(NCc2nnc(SCC(=O)Nc3ccc(OC)cc3OC)o2)cc1 | 5
Cc1n(-c2ccccc2)c2ccc(Cl)cc2[n+]1CCO | 5
O=C1CCCc2ccccc2N1Cc1cccc(F)c1 | 9
CCO[C@@H]1OC(C(=O)N2CCN(Cc3ccc4c(c3)OCO4)CC2)=C[C@H](c2cn(C(C)=O)c3ccccc23)[C@H]1CCCO | 24
CCOC(=O)c1c(-c2ccc(-c3ccccc3)cc2)csc1NC(=O)c1cccc(N2C(=O)CCC2=O)c1 | 17
Nc1n[nH]c(N)c1N=Nc1ccccc1 | -6
Cc1[nH]c2ccccc2c1C(=O)C(=O)NCC1CCCO1 (stereo unspecified) | 1
CCOC(=O)c1ccc(-c2ccc(/C=N/NC(=O)Cc3nnc(N)s3)o2)cc1 | 5
CCN1CC(CN(C)Cc2cn(-c3cccc(C)c3)nc2-c2cccc(F)c2)CC1=O (stereo unspecified) | 24
COCCC(=O)Nc1ccc2c(c1)CN(C(=O)CCSC)CC2 | -3
Cc1ccc(-c2nnn(CC(=O)N3c4ccccc4CCc4ccccc43)n2)cc1 | 15
CCOC(=O)C1C(=O)C=C(Nc2ccccc2F)CC1c1ccccc1 (stereo unspecified) | 17
CCN(C(=O)COC(=O)CNC(=O)c1ccc(F)cc1)C1CCS(=O)(=O)C1 (stereo unspecified) | 4
COc1cccc(CN2CCNC(=O)C2CC(=O)NCCn2ccc3ccccc32)c1OC (stereo unspecified) | 1
Cc1cccc(C)c1OCc1nc2ccccc2c(=O)n1/N=C/c1c[nH]c2ccccc12 | 13
O=C(C1CCN(Cc2ccc(Cl)cc2)CC1)N1CCN(C(c2ccccc2)c2ccccc2)CC1 | 10
Nc1nc(SCC(=O)Nc2ccc([N+](=O)[O-])cc2)n[nH]1 | 13
NC(=O)COc1ccccc1 | 13
O=C(OC(C(=O)Nc1cc(Cl)cc(Cl)c1)c1ccccc1)C1=COCCO1 (stereo unspecified) | 6
Nc1nnc(SCn2nnc3ccccc3c2=O)s1 | 7
CCCCC(=O)NC(=S)Nc1cccc(Cl)c1N1CCCCC1 | 4
COC(=O)CCC(=O)OC1(C)C(=O)C2=CN(CCN3CCOCC3)C(c3ccc(OC)cc3)=CC2=C(Br)C1=O (stereo unspecified) | 14
Clc1ccc(-c2cn3cc(Br)ccc3n2)cc1Cl | 11
Cc1cccc(CCNC(=O)c2nnc(Cc3ccc(Cl)cc3)o2)c1 | 14
Cc1cc(C)c(OCC(=O)Nc2cc(C(=O)O)cc(C(=O)O)c2)cc1C | 20
Cc1cccc(CC2CC(=O)N(c3nc4ccccc4s3)C2=O)c1 (stereo unspecified) | 10
CCOC(=O)C1=NOC2C(=O)N(c3ccc(Cl)cc3Cl)C(=O)C12 (stereo unspecified) | 16
CCN(C)Cc1c(C(=O)N2CCc3ccccc3C2)nc2ccc(Cl)cn12 | 13
Cn1cc(Br)c(C(=O)Nc2c(F)c(F)c(F)c(F)c2F)n1 | 5
O=C(NCCCCCCOC1=NS(=O)(=O)c2ccccc21)C(=O)Nc1ccccc1 | 14
Cc1nn(C)c(C)c1NC(=O)c1ccccc1NC(=O)Nc1ccccc1 | 13
Cc1cc(C)c2cc3c(N)c(C(=O)N4CCOCC4)sc3nc2c1 | 11
C/C(=N\N=C1\NC(=O)C(Cc2ccccc2)S1)c1ccccc1 (stereo unspecified) | 12
C=CCOC(=O)C1=C(C)NC(C)=C(C(=O)OCC=C)C1c1ccco1 | 2

The list goes on.
mol | Calb biofilm kill
C=CCn1c(SCC(=O)c2cccs2)nc2sc(C)c(C)c2c1=O | 19
CSc1ccccc1NC(=O)Cn1nnc(-c2ccc(S(C)(=O)=O)cc2)n1 | 15
Cn1cccc1C(C#N)c1cccc(F)c1C#N (stereo unspecified) | 2
Cc1nnc(SCc2ccccn2)n(N)c1=O | 1
